Methyltransferases: Primary Screen for Target Class Profiling of Small Molecule Inhibitors of Methyltransferases; 3.9% of 25,000 active; purified enzyme, MTase-Glo SAH luminescence; stronger effect = lower value; calls only at 40 µM; active = -50% or lower on at least one of six enzymes; inconclusive = the cases between; inactive = as a rule above -30% on all six;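 note: enzymes were COMT GAMT GNMT HNMT NNMT and PNMT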
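Each enzyme was reacted with SAM and its substrate, with compounds tested once at 40 uM; SAH formed was read by MTase-Glo luminescence.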
Calls only; i = inactive; ? = inconclusive; + = active, no number. % is set by controls: 0 for no effect and ±100 for the full control effect. These rows are one share of the data. The share of hits here may be higher or lower than overall.

nr	canonical_smiles	Methyltransferases
1	COc1ccc(CN2C(=O)c3cc4ccccc4n3CC2(C)C(=O)NCCC(C)C)c(OC)c1 (stereo unspecified)	i
2	COc1ccc2cc3n(c2c1)CC(C)(C(=O)NC1CCCCC1)N(Cc1cccnc1)C3=O (stereo unspecified)	i
3	COc1cc(/C=C/c2cn(-c3ccc(C(=O)O)cc3)nc2/C=C/c2ccc(O)c(OC)c2)ccc1O	+
4	O=C(c1ccc(-c2cncnc2)cc1)N1CCC(N[S+](=O)([O-])c2cccc(C(F)(F)F)c2)CC1	i
5	CC(NC(=O)c1n[nH]c2ccccc12)C(=O)N1CCN(c2ccccn2)CC1 (stereo unspecified)	i
6	O=C(C1CC1)N1CCC2(CC1)NC(=O)N(c1cccc(Cl)c1)N2	i
7	COc1ccccc1CNC(=O)C1(C)Cn2c(cc3ccccc32)C(=O)N1C1CCCC1 (stereo unspecified)	i
8	CCCCN1C(=O)c2cc(C(=O)NCc3ccccc3C)nn2CC1(C)C(=O)NC1CCCC1 (stereo unspecified)	i
9	CCN1C(=O)c2c(C(=O)NCc3ccccc3OC)ncn2CC1(C)C(=O)NC1CCCC1 (stereo unspecified)	i
10	C/C=C(\C)C1C(C)=CC2CCC(OS(=O)(=O)O)C(C)C2C1/C=C/C=C/C(=O)O (stereo unspecified)	i
11	COc1cc2c(NC(C)=O)c3n(c2cc1OC)CC(C)(C(=O)NC1CCCCCC1)N(CCC(C)C)C3=O (stereo unspecified)	i
12	CCOc1ccc(CN2C(=O)c3cc4ccccc4n3CC2(C)C(=O)NC2CCCCC2)cc1 (stereo unspecified)	i
13	O=C(Cn1c(=O)oc2cc(S(=O)(=O)N3CCCC3)ccc21)Nc1ccc(F)cc1F	i
14	COc1ccc(N2CCN(C(=O)c3cccc(Nc4nc5ccccc5n5nnnc45)c3)CC2)cc1	i
15	CCCCN1C(=O)c2cc3ccccc3n2CC1(C)C(=O)NC1CCCCC1 (stereo unspecified)	i
16	Cc1nc(C2CC(O)C2)cc(N2CCN(c3nc4ccccc4s3)CC2)n1 (stereo unspecified)	i
17	COc1ccc(-c2nnc(-c3ccc(Cl)c(S(=O)(=O)N4CCCCC4)c3)o2)cc1	i
18	CC1CCN(S(=O)(=O)c2ccc3c(ccn3CC(=O)NC3CCCC3)c2)CC1	i
19	CC(=O)Nc1cccc(Nc2ncnc(N3CCC(OCc4ccc(OC(F)(F)F)cc4)CC3)n2)c1C	i
20	COc1ccc(OC)c(N2C(=O)c3cc4ccccc4n3CC2(C)C(=O)NC2CCCC2)c1 (stereo unspecified)	i
21	COc1cccc(CNC(=O)Cn2nc3n(Cc4ccc(F)cc4)c(=O)c4ccccc4n3c2=O)c1	i
22	CN(C)CCN(C)[C@H]1[C@@H]2OC[C@@H](O2)[C@@H](NC(=O)Nc2cccc(C#N)c2)[C@@H]1O	i
23	Cc1cccc(CNC(=O)Cn2ccc3cc(S(=O)(=O)N4CCCC4)ccc32)c1	i
24	COc1ccc(OC)c(NC(=O)N2CCn3c(C)ccc3C2C(C)C)c1 (stereo unspecified)	i

Looked up by structure from the list above:
nr	canonical_smiles	Methyltransferases
18	CC1CCN(S(=O)(=O)c2ccc3c(ccn3CC(=O)NC3CCCC3)c2)CC1	i
20	COc1ccc(OC)c(N2C(=O)c3cc4ccccc4n3CC2(C)C(=O)NC2CCCC2)c1 (stereo unspecified)	i

More structures:
nr	canonical_smiles	Methyltransferases
25	C[C@@H]1CN(c2c(F)c(F)c3c(=O)c(C(=O)O)cn(C4CC4)c3c2F)C[C@H](C)N1	i
26	CCC1CN(S(=O)(=O)c2ccc3[nH]c4c(c3c2)CCCC4)c2ccccc2S1 (stereo unspecified)	i
27	Cc1ccsc1CN1CCc2nc(N3CCOCC3)[nH]c(=O)c2CC1	i
28	Cc1ccc(CNC(=O)Cn2c(=O)oc3cc(S(=O)(=O)N4CCCCC4C)ccc32)cc1 (stereo unspecified)	i
29	COc1ccc(C(=O)N2CCC3(CC2)CC(N(Cc2ccccc2)C2CC2)CCO3)cn1 (stereo unspecified)	i
30	COc1ccccc1CNC(=O)C1(C)Cn2nc(-c3ccccc3)cc2C(=O)N1CCc1ccco1 (stereo unspecified)	i
31	C=CC(C)(O)CC/C=C(\C)C(=O)OC1C(O)C(CO)OC(OC(=O)C23CCC(C)(C)CC2C2=CCC4C5(C)CCC(OC6OC(COC7OCC(OC(C)=O)C(O)C7OC7OC(COC(C)=O)C(O)C(O)C7O)C(O)C(O)C6O)C(C)(C)C5CCC4(C)C2(C)C(O)C3O)C1OC1OCC(OC2OCC(O)C(OC3OCC(O)C(O)C3O)C2O)C(O)C1O (stereo unspecified)	i
32	COc1cc(OC)cc(N2C(=O)c3cc(C(C)(C)C)nn3CC2(C)C(=O)NCc2ccccc2)c1 (stereo unspecified)	i
33	CCCNC(=O)c1ncn2c1C(=O)N(C1CC1)C(C)(C(=O)NCc1ccccc1OC)C2 (stereo unspecified)	i
34	COc1ccc(CNC(=O)[C@@H]2Cc3nc[nH]c3CN2C(=O)NC(C)C)cc1	i
35	CNC(=O)c1cn2c(n1)CN([S+](C)(=O)[O-])CC2	i
36	CC1=CC(=O)CC(C)(C)C1CCC(C)OC1OC(COC(=O)c2cc(O)c(O)c(O)c2)C(O)C(O)C1O (stereo unspecified)	+
37	COc1cc(C(C)C)c(Oc2cnc(N)nc2N)cc1I	i
38	COCCOc1nc(-c2ccc(Cl)c(Cl)c2)n(-c2ccc(NC(=O)CCl)cc2)n1	?
39	CC1(C(=O)NC2CCCCC2)Cn2c(cc3occc32)C(=O)N1Cc1ccco1 (stereo unspecified)	i
40	NC(N)=NCc1cccc(I)c1	i
41	CCOc1ccc(CCNC(=O)c2cc3n(n2)CC(C)(C(=O)NCc2ccccc2)N(C)C3=O)cc1 (stereo unspecified)	i
42	C=C1CCCC2(C)CCC(C(C)(C)OC3OC(C)C(O)C(O)C3OC(=O)/C(C)=C\C)CC12 (stereo unspecified)	i
43	Cc1cccc(CNC(=O)C2(C)Cn3cnc(C(=O)NCc4ccccc4)c3C(=O)N2C2CC2)c1 (stereo unspecified)	i
44	O=C(Cn1c(=O)oc2cc(S(=O)(=O)N3CCCCC3)ccc21)NCc1ccc(Cl)cc1	?
45	c1ccc2c(c1)CCCC2C1=NCCN1 (stereo unspecified)	i
46	C=C1C(=O)O[C@@H]2C[C@]3(C)[C@@H](CCC(C)O)[C@@H]3C[C@H]12 (stereo partly specified)	i
47	O=C(/C=C/C=C/c1ccc2c(c1)OCO2)N1CCCCC1	i
48	CC1(C(=O)NCc2ccccc2)Cn2nc(-c3ccccc3)cc2C(=O)N1Cc1cccc(Br)c1 (stereo unspecified)	i
49	O=C(/C=C/c1ccc(O)c(O)c1)OCc1ccccc1O[C@@H]1O[C@H](CO)[C@@H](O)[C@H](O)[C@H]1O	i
50	O=C(NCc1ccccc1Cl)c1ccc2c(=O)nc3c(-c4ccc(F)cc4)n[nH]n3c2c1	i
51	CCN1C(=O)c2cc(C(=O)Nc3cccc(Cl)c3)nn2CC1(C)C(=O)NC1CCCC1 (stereo unspecified)	i
52	Cc1ccc(CNC(=O)C2(C)Cn3nc(C(=O)NCc4ccc(OC(C)C)cc4)cc3C(=O)N2C)cc1 (stereo unspecified)	i
53	Cc1ccc(Cn2c(=O)c3ccccc3n3c(CCC(=O)NCCc4ccc(Cl)cc4)nnc23)cc1	i
54	COC(=O)C1=COC(OC2OC(CO)C(O)C(O)C2O)C2C1C=CC2(O)CO (stereo unspecified)	i
55	CCCN1C(=O)c2ccccc2CC1(C)C(=O)NC1CCCCCC1 (stereo unspecified)	i
56	CCCCN1C(=O)CSc2c(c3ccccc3n2C)C1C(=O)NCCC(C)C (stereo unspecified)	i
57	NCc1ccc(Oc2ccc(F)c(Cl)c2)cc1	i
58	COC(=O)C[C@H]1C(C)(C)[C@H](OC(=O)c2ccccc2)C2CC3=C4CC(=O)O[C@@H](c5ccoc5)[C@]4(C)CCC3[C@@]1(C)C2=O (stereo partly specified)	i
59	O=C(C1CC(c2ccc(F)cc2)=NO1)N1CCN(c2ccc(F)cc2)CC1 (stereo unspecified)	i
60	COc1ccc(-n2c(SCCCN3C(=O)c4cccc5cccc(c45)C3=O)nnc2-c2ccncc2)cc1	?

Compounds 36–41 from above:
nr	canonical_smiles	Methyltransferases
36	CC1=CC(=O)CC(C)(C)C1CCC(C)OC1OC(COC(=O)c2cc(O)c(O)c(O)c2)C(O)C(O)C1O (stereo unspecified)	+
37	COc1cc(C(C)C)c(Oc2cnc(N)nc2N)cc1I	i
38	COCCOc1nc(-c2ccc(Cl)c(Cl)c2)n(-c2ccc(NC(=O)CCl)cc2)n1	?
39	CC1(C(=O)NC2CCCCC2)Cn2c(cc3occc32)C(=O)N1Cc1ccco1 (stereo unspecified)	i
40	NC(N)=NCc1cccc(I)c1	i
41	CCOc1ccc(CCNC(=O)c2cc3n(n2)CC(C)(C(=O)NCc2ccccc2)N(C)C3=O)cc1 (stereo unspecified)	i

Next part.
nr	canonical_smiles	Methyltransferases
61	Cc1ccc2nc(-c3ccc(Cl)c(NC(=O)c4ccc5c(c4)OCCO5)c3)oc2c1	?
62	CCc1cc2c(cc3n2CC(C)(C(=O)NC2CCCCC2)N(C2CCCCCC2)C3=O)s1 (stereo unspecified)	i
63	CC1(O)CC(O)C2(O)C=COC(O[C@@H]3O[C@H](CO)[C@@H](O)[C@H](O)[C@H]3O)C12 (stereo partly specified)	i
64	CC1CCC(NC(=O)C2(C)Cn3c(cc4sccc43)C(=O)N2Cc2ccccc2Cl)CC1 (stereo unspecified)	i
65	CC(NC(=O)c1cc2n(n1)CC(C)(C(=O)NC1CCCCC1)N(C)C2=O)c1ccc2c(c1)OCCO2 (stereo unspecified)	i
66	Cc1ccc(CCNC(=O)c2cc3n(n2)CC(C)(C(=O)NCc2ccccc2)N(C)C3=O)cc1 (stereo unspecified)	i
67	Cc1ccc(N2C(=O)c3cc4occc4n3CC2(C)C(=O)NC2CCC(C)CC2)cc1 (stereo unspecified)	i
68	COc1ccc(NC(=O)CCc2nnc3n(Cc4ccc(Cl)cc4)c(=O)c4ccccc4n23)cc1	i
69	O=C(c1ccc2c(=O)nc3c(-c4ccc(Cl)cc4)n[nH]n3c2c1)N1CCN(c2ccccc2)CC1	i
70	Cc1ccc(C)c(Nc2nn3c(=O)c4ccc(C(=O)NC5CCCCC5C)cc4nc3s2)c1 (stereo unspecified)	i
71	CCN(CC)c1cc(CCC(=O)NCCc2ccccn2)ccn1	?
72	O=C(N[C@H]1CO[C@H]2[C@@H]1OC[C@@H]2Nc1nccc(C2CCCC2)n1)c1ccco1	i
73	OCC1O[C@H]([S-])[C@H](O)[C@@H](O)[C@@H]1O.[Au+] (stereo partly specified)	i
74	CC(C)CCN1C(=O)c2cc(-c3cccs3)nn2CC1(C)C(=O)NC1CCCCC1 (stereo unspecified)	i
75	CN1C(=O)c2cc(C(=O)N3CCOCC3)nn2CC1(C)C(=O)NC1CCCCCC1 (stereo unspecified)	i
76	COc1cccc(N2CCN(S(=O)(=O)c3cc4[nH]c(=O)[nH]c4cc3C)CC2)c1	i
77	C#CCNC(=O)C1CCc2nnc(-c3ccc(Cl)cc3Cl)n21 (stereo unspecified)	i
78	O=C(CCn1ccc2cc(S(=O)(=O)N3CCCCC3)ccc21)N1CCc2ccccc2C1	i
79	Cc1cc2[nH]c(=O)[nH]c2cc1S(=O)(=O)NCc1ccc(F)cc1	i
80	O=S1(=O)CCN(Cc2cc(NCC3CCOCC3)c3[nH]c(-c4ccccc4)cc3c2)CC1	+
81	CCOc1ccc2c(n1)CCN(C(=O)C1(c3ccccc3)CC1)C2	?
82	CC(C)C1c2cccn2CCN1C(=O)Nc1cc(F)ccc1F (stereo unspecified)	i
83	Cc1ccc(NC(=O)Cn2c(=O)oc3cc(S(=O)(=O)N4CCCC4)ccc32)c(C)c1	i
84	Cc1ccc(C(C(=O)O)N2CCC(CCN3CCCC3=O)CC2)cc1C (stereo unspecified)	i
85	O=C(CCc1nnc2n(Cc3ccc(Cl)cc3)c(=O)c3ccccc3n12)N1CCN(c2ccccc2F)CC1	i
86	COc1ccc(OC)c(CCNC(=O)Cn2ccc3cc(S(=O)(=O)N4CCCCC4)ccc32)c1	i
87	COc1ncccc1C(=O)N1CCc2onc(-c3cccc4ccccc34)c2C1	i
88	COc1ccc(NC(=O)c2ccc(C(=N)N(C)C)cc2)c(C(=O)Nc2ccc(Cl)cn2)c1	i
89	CO/N=C(\C(=O)N[C@@H]1C(=O)N2C(C(=O)O)=C(CSc3nc(=O)c(O)nn3C)CSC12)c1csc(N)n1 (stereo partly specified)	i
90	Cc1cc2c(cc3n2CC(C)(C(=O)NC2CCCCCC2)N(Cc2ccco2)C3=O)o1 (stereo unspecified)	i
91	Cc1ccc(C)c(S(=O)(=O)c2nnn3c2nc(NCCc2c[nH]c4ccccc24)c2ccccc23)c1	i
92	Cc1ccc(NC(=O)Cn2nc3n(CCC(C)C)c(=O)c4ccc(C(=O)NC(C)C)cc4n3c2=O)cc1C	i
93	O=C(Cn1nc2nc(Nc3ccc(F)cc3)ccn2c1=O)Nc1ccc2c(c1)OCO2	i
94	COc1ccc(CNC(=O)CCc2nnc3n(Cc4ccccc4)c(=O)c4ccccc4n23)cc1	i
95	C=C1CCC2C(C)(C(=O)O)CCCC2(C)C1CC/C(C)=C\CO (stereo unspecified)	i
96	CN(C)C[C@@H]1CN(Cc2ccncc2)C[C@H]1NC(=O)Cc1ccsc1	i
97	COc1ccc(NC2CCCN(C(=O)c3cn(CCCN)nn3)C2)cc1 (stereo unspecified)	i
98	Cc1cc(-n2c(=O)[nH]c(=O)n(C)c2=O)ccc1Oc1ccc(SC(F)(F)F)cc1	i
99	CC(C)OCCCn1c(=O)c2ccccc2n2c(=O)n(CC(=O)NCc3ccccc3Cl)nc12	i
100	C=Cc1ccc(Cn2nc3n(C(C)C)c(=O)c4ccc(C(=O)NCC(C)C)cc4n3c2=O)cc1	i
101	CC(C)Cn1c(=O)c2ccccc2n2c(=O)n(CC(=O)NCc3ccccc3Cl)nc12	i
